S aureus helic: S. aureus DNA helicase inhibition; purified S. aureus helicase, fluorescence unwinding assay; about half of the hits fall short of the stated cut; inhibition, %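 (tested at about 80 µM)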; hit rate 0.05% among 120,000;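 active = both duplicates at 50% or more, or one of them with a favoured structure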;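 note: 0% = mean of negative control wells and 100% = mean of positive control wells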
MgrA DNA FP: modulators of Staphylococcus aureus MgrA DNA binding. fluorescence polarization. inhibition, %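 (about 10 µg/mL by stock and volumes)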. hit rate 0.13% among 84,000;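 active = above 50% in either of two replicates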;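 note: 0% = protein plus DNA without compound and 100% = DNA alone without protein; higher means less MgrA bound to DNA so lower polarization; one replicate is shown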
* = called active by the depositor; nt = not tested or not shown; & = joins results of further samples.

SMILES | S aureus helic | MgrA DNA FP
NCc1cn2ccccc2n1 | -21 | nt
O=C1c2cccc3c(S(=O)(=O)N4CCOCC4)ccc(c23)N1C(=O)C1CCCCC1 | 10 | nt
CCN1CCc2nc(NC(=O)CCc3ccccc3)sc2C1 | -11 | nt
Cc1ccc(CNS(=O)(=O)c2ccc(C(C)(C)C)cc2)n1C | 5 | -1.7
CC(C)COc1ccccc1O | -4 | -2.0
Cc1sc2c(c1C)c(=O)n(Cc1ccccc1)c(=O)n2CC(=O)NC1CCCC1 | 19 | nt
CC(=O)OC(C)(C)C1Cc2cc3ccc(=O)oc3cc2O1 (stereo unspecified) | 30 | nt
CCOc1cccc(C(=O)Nc2ccccc2C(=O)OC)c1 | -6 | 0.4
Cc1[nH]c(=O)[nH]c(=O)c1S(=O)(=O)N1CCCC(C(=O)NCc2ccc3c(c2)OCO3)C1 (stereo unspecified) | 13 | 5.4
CC1CCC2(CC1)C(=O)N(S(=O)(=O)c1cccc(C(F)(F)F)c1)C(=O)N2C (stereo unspecified) | -10 | nt
CCN(CC)CCSc1nc(O)c(-c2ccccc2)c(=O)[nH]1 | 8 | nt
COc1cc(Nc2nc(SCC(=O)c3ccc(O)c(O)c3)nc3ccccc23)cc(OC)c1 | 15 | 0.4
COc1ccc(/C=N/NC(=O)c2cc3c(=O)n(C)c(=O)n(C)c3nc2C)cc1 | 14 | nt
CC1CCC(C(C)C)C(OCC(O)CN2CC(C)OC(C)C2)C1 (stereo unspecified) | -18 | nt
CN(C)Cc1ccc(O)c(CN(C)C)n1 | 12 | -0.2
N=Nc1c(O)[nH]c2ccccc12 | nt | -1.3
N#C/C(=C\C=C\c1ccccc1)C(N)=S | -67 | nt
CCN(CC)CCn1c2ccccc2c2cnc(N)c(C#N)c21 | 19 | nt
CSc1nsc(SCC(=O)NC(C)CCc2ccccc2)n1 (stereo unspecified) | -4 | -1.6
O=S(=O)(CCN(Cc1cccs1)C(=S)Nc1cccc(F)c1)c1ccc(Cl)cc1 | nt | -1.6
N#CC(C#N)=NNc1ccc2c(c1)OCO2 | 18 | nt
Oc1cc2c(cc1C(c1ccc(C(F)(F)F)cc1)N1CCCC1)OCO2 (stereo unspecified) | nt | 3.0
CCC(=O)N1CCN(c2ccc(NC(=O)COc3ccc(Cl)cc3Cl)cc2)CC1 | -5 | -1.7
COC(=O)Cc1cc(=O)n(-c2ccccc2)[nH]1 | 4&-2 | -0.1
CCOC(=O)c1oc2ccccc2c1COC(=O)C1CSC2(C)CCC(=O)N12 (stereo unspecified) | -14 | nt
CCCCN(S(C)(=O)=O)S(=O)(=O)c1ccc(OC)cc1 | -1 | nt
O=C(Cc1ccccc1)NCCSCc1ccco1 | -10 | 5.2
Fc1ccccc1N1CCN(c2ncnc3[nH]ncc23)CC1 | -5 | nt
O=c1[nH]c2ccc(NS(=O)(=O)Cc3ccccc3)cc2o1 | 4 | nt
Cc1cc(C)cc(NS(=O)(=O)c2cn(C)c(=O)n(C)c2=O)c1 | -15 | nt

Some of these compounds in order of SMILES length, falling.
SMILES | S aureus helic | MgrA DNA FP
CCC(=O)N1CCN(c2ccc(NC(=O)COc3ccc(Cl)cc3Cl)cc2)CC1 | -5 | -1.7
COC(=O)Cc1cc(=O)n(-c2ccccc2)[nH]1 | 4&-2 | -0.1
N#CC(C#N)=NNc1ccc2c(c1)OCO2 | 18 | nt

Other records.
SMILES | S aureus helic | MgrA DNA FP
CCOc1ccc(N=C2C(=O)N(CN3CCCC(C)C3)c3ccccc32)cc1 (stereo unspecified) | -27 | nt
CCOc1cccc(C(=O)Nc2cc3nn(-c4ccccc4)nc3cc2C)c1 | 20 | -0.2
O=C1CC(c2ccccc2)Nc2ccc3ccccc3c21 (stereo unspecified) | -4 | nt
CCOC(=O)c1ccc2c(c1)nc(C(C)C)n2CC | -21 | nt
C=CCN1C(=O)/C(=C2/C(=O)N(CC(=O)Nc3ccccc3Cl)c3ccccc32)SC1=S | 0 | nt
Cc1conc1NC(c1cccs1)c1ccc2cccnc2c1O (stereo unspecified) | 11 | nt
O=S(=O)(NCc1ccco1)c1cccc2cccnc12 | 0 | nt
O=C(NCCCn1ccnc1)c1cc(-c2ccc(Cl)c(Cl)c2)on1 | 4 | nt
Cn1c(=O)[nH]c(=O)c2c1nc(SCc1cccc(Br)c1)n2CC(O)COc1ccc(Cl)cc1 (stereo unspecified) | nt | 0.3
CCC(C(=O)NN1C(=O)c2ccccc2C1=O)c1ccccc1 (stereo unspecified) | 7 | -5.0
CCn1c2ccccc2c2cc(CN3CCN(Cc4ccco4)CC3)ccc21 | 3 | 0.1
CN(C)CC(C)(C)Cn1c(=S)[nH]c2ccccc2c1=O | 6 | nt
COc1cccc(Nc2ccc(-n3ccnc3)nn2)c1 | -18 | 0.8
Brc1ccc2c(c1)CN(C1CCCCC1)CO2 | 9 | -0.5
Cc1cccc(NC(=O)CN2CCN(C(=O)c3cc(C4CC4)nn3-c3ccccc3)CC2)c1C | 16 | nt
COc1cccc2cc(C(=O)NCCc3ccccc3)c(=O)oc12 | -16 | nt
CCOC(=O)c1cc2c(=O)n3ccccc3nc2n(CC)c1=N | -3 | nt
N#CC(C#N)=C1C=C2C=C(N3CCCC3)CCC2CC1 (stereo unspecified) | -120 | nt
COCCN1C(=O)c2oc3ccccc3c(=O)c2C1c1ccc(C)cc1 (stereo unspecified) | -4 | nt
Cc1ccsc1C(=O)N(CC(=O)Nc1ccccc1C(F)(F)F)Cc1ccco1 | -11 | nt
O=C(c1cccc2c1C(=O)N(Cc1cccnc1)C2)N1CCN(Cc2ccccc2)CC1 | 1 | -3.9
O=C1C(C=NCCc2c[nH]c3ccccc23)=C(O)c2ccccc21 | 13 | 2.0
Cc1nc2c(C(=O)Nc3ccc(N4CCC(O)CC4)cc3)snc2c(=O)[nH]1 | 10 | 3.1
CCOc1ccc(C(=O)Nc2ccc(NC(=O)c3ccccc3)c(C)c2)cc1Br | 9 | 5.2
CCN(CC)c1ccc(/C=C(/C#N)C(=O)NC(C)C)o1 | -92 | -16
CCOC(=O)Cn1c2c(c(C(F)(F)F)cc1=O)C(=O)CCC2 | nt | -0.4
Cc1ccc2oc(C(=O)Nc3ccc(C)c(C)c3)cc(=O)c2c1 | 0 | -0.2
CC(=O)Nc1ccc(C(=O)N2CCCC2)cc1 | 19 | -1.6
Cc1ccc2oc(=N)c3c(N)nc(-c4ccc5c(c4)OCO5)cc3c2c1 | -12 | nt
C=CCN1C(=O)C(CC(=O)Nc2ccc(OC)cc2)N(Cc2ccco2)C1=S (stereo unspecified) | 9 | 7.0
CCN(CC)c1ccc(C(=O)Oc2ccc(C(=O)OC)cc2)cc1 | -13 | nt
CC(C)NC(=O)c1ccccc1Sc1ccccc1 | 8 | nt
Fc1cccc(Cl)c1CSc1ncnc2ccccc12 | -12 | nt
CC(C)(C)c1ccc(C(O)CCCN2CCC(C(O)(c3ccccc3)c3ccccc3)CC2)cc1 (stereo unspecified) | nt | 0.0
C[C@H](NC(=O)Cc1ncc(C(F)(F)F)cc1Cl)c1ccccc1 | nt | -1.5
CC(C)(C)CC(C)(C)NC(=O)c1cccc(N=Cc2ccccc2O)c1 | nt | -1.2
COCCCn1c(C)cc(C(=O)Cn2cnc3sc(-c4ccccc4)cc3c2=O)c1C | 5 | nt
CN(C)c1ccc(/C=c2\sc3c(C#N)cc(C(=O)c4ccccc4)n3c2=O)cc1 | -113 | nt
CC(=O)NC1(c2ccc(C)cc2)CCN(CC(=O)NC2CC2)CC1 | 3 | -1.3
COC(=O)C1CCC(C(=O)OC)CC1 (stereo unspecified) | nt | 0.9
O=C(N1CCN(c2ccccc2)CC1)N(c1ccccc1)c1ccccc1 | -7 | nt
CC(=O)Nc1ccc(NC(=O)CNc2ccc(Br)cc2)cc1 | 6 | nt
COc1ccc(-c2cc(C(=O)NCc3ccc4c(c3)OCO4)c3ccccc3n2)cc1 | nt | 3.7
CCOc1ccc(NC2SC(=O)NC2=O)cc1 (stereo unspecified) | -29 | nt
Cn1nnnc1SC1CCCCN(C(=O)c2ccc(F)cc2)C1=O (stereo unspecified) | -13 | nt
O=C(CCN1C(=O)/C(=C/c2cccs2)SC1=S)NC12CC3CC(CC(C3)C1)C2 | nt | 1.4
N#Cc1ccccc1NC(=O)c1cccs1 | 13 | -4.2
CCN(CC)C(=O)C1CCCN(C(=O)Nc2ccccc2)C1 (stereo unspecified) | 10 | 0.7
Nc1c(S(=O)(=O)c2ccc(Cl)cc2)cnc2cc(-c3ccccc3)nn12 | nt | -1.6
CCCN(CCC)C(=O)c1ccccc1Cl | 12 | 1.1

Further records.
SMILES | S aureus helic | MgrA DNA FP
Cc1cc(NC(=O)S(=O)(=O)c2ccccc2)ccc1NC(=O)c1ccco1 | 1 | 0.7
OC(CN1CCN(c2cccc(Cl)c2)CC1)Cn1c2ccccc2c2ccccc21 (stereo unspecified) | 6 | 1.4
CCOC(=O)c1c(C)n(-c2ccc(Cl)cc2)c2ccc(OC(=O)/C=C/c3ccccc3)cc12 | nt | 1.3
O=C(Cn1cccc1C(=O)c1ccccc1)NCCc1ccccc1 | 6 | nt
CN(CCC#N)CC1Cc2ccccc2O1 (stereo unspecified) | -9 | 1.2
Cc1ccc(-c2ccc(=O)n(CC(=O)NC3CCCCC3C)n2)cc1 (stereo unspecified) | 12 | nt
CN(C)C=Nc1cnn(-c2ccccc2)c(=O)c1Cl | 8 | nt
CCCn1c(=O)n(Cc2c(C)noc2C)c(=O)c2c1nc(C(F)(F)F)n2CCOC | 4 | nt
COc1cc2c(cc1O)C(C)=NC(C)(C)C2 | 6 | 0.1
CCCn1cc(SCC(=O)N2N=C(c3cccs3)CC2c2ccc(OC)cc2)c2ccccc21 (stereo unspecified) | 16 | 1.5
CCC(C)NC(=O)C1CCCN1S(=O)(=O)c1ccc2nc(-c3ccccc3)[nH]c2c1 (stereo unspecified) | 3 | 0.5
Cc1nnc(Nc2ccc(C(N)=O)cc2)c2ccccc12 | -4 | -0.3
O=C(/C=C/c1cn(-c2ccccc2)nc1-c1cccs1)N1CCCC1 | -8 | nt
CC(=O)N1C=Cc2ccccc2C1c1c[nH]c2ccccc12 (stereo unspecified) | 16 | -9.2
CC(Sc1n[nH]c(-c2cccs2)n1)C(=O)N1CCCC1 (stereo unspecified) | 2 | nt
CCN(CC)C(=O)c1cc2c(=O)c3cc(Cl)ccc3oc2nc1C | nt | 0.1
CC(=O)SC1CCS(=O)(=O)C1 (stereo unspecified) | -5 | -0.6
Cc1cc(C(=O)Cn2cc(C(F)(F)F)ccc2=O)c(C)n1Cc1ccco1 | -11 | nt
CSc1oc(-c2cccs2)nc1S(=O)(=O)c1ccccc1 | 0 | nt
CCC1CCCCN1c1nc(C)cc(C)n1 (stereo unspecified) | -15 | 1.4
O=C(CSc1ccc2nnc(-c3ccccc3)n2n1)Nc1ccccc1 | -27 | nt
O=C(Cc1ccccc1)Nc1nnc(-c2ccccc2Cl)s1 | 18 | nt
O=C1C=CC(=O)N1C1CCN(Cc2ccccc2)CC1 | nt | -0.1
C/C(=C\c1ccccc1)CN1CCCN(C)CC1 | 13 | -1.2
NC(=O)CSc1nc2cc(S(=O)(=O)N3CCOCC3)ccc2o1 | 15 | nt
N#Cc1c(F)cccc1OCc1ccc(Cl)cc1 | nt | -1.1
COc1ccc(C(C#N)N2N=C(C)CC2(C)C)cc1 (stereo unspecified) | 16 | -1.1
N/C(CN1CCCCC1)=N\S(=O)(=O)c1cc(Cl)cc(Cl)c1 | nt | 3.8
Cn1ncc2c(Sc3cccc4ccccc34)ncnc21 | nt | 0.7
CCc1noc(C)c1C(=O)N1CCOCC1 | 1 | 0.7
Cc1cc(S(=O)(=O)NC(C)C)ccc1OCC(=O)NC1CC1 | -15 | 1.1
N[C@H](Cc1ccccc1)C(=O)O | nt | 3.3
CCOC(=O)C1C(=O)Nc2nc(C)nn2C1c1ccccc1 (stereo unspecified) | -20 | nt
O=C(NNC(=S)Nc1cccc(Cl)c1)c1cccnc1 | nt | 4.0
C=CCNc1ncnc2c1sc1nc(CCCC)c3c(c12)CCCC3 | 1 | -1.1
O=C(NCCCN1CCOCC1)NC1(c2ccccc2)CC1 | 0 | -1.1
CCOC(=O)c1ccc(NC(=O)c2sc(NC(=O)c3ccc(C)c([N+](=O)[O-])c3)c(C(=O)OCC)c2C)cc1 | nt | 1.2
O=S(=O)(c1ccccc1)c1cccs1 | nt | 0.6
Cc1[nH]c(=O)[nH]c(=O)c1N | 10 | -2.2
CCC1=Nc2cc(C(=O)NCCN3CCCCCC3)ccc2Sc2ccc(C)cc21 | -2 | -2.2

Arranged by value in MgrA DNA FP (highest first): some entries from above.
SMILES | S aureus helic | MgrA DNA FP
O=C(NNC(=S)Nc1cccc(Cl)c1)c1cccnc1 | nt | 4.0
N[C@H](Cc1ccccc1)C(=O)O | nt | 3.3
Cc1cc(S(=O)(=O)NC(C)C)ccc1OCC(=O)NC1CC1 | -15 | 1.1
O=S(=O)(c1ccccc1)c1cccs1 | nt | 0.6
Cc1[nH]c(=O)[nH]c(=O)c1N | 10 | -2.2

Further compounds
SMILES | S aureus helic | MgrA DNA FP
Cc1ccc(Oc2ccc(C(F)(F)F)cc2NC(=O)c2c(-c3c(F)cccc3Cl)noc2C)c2c1CCC2 | nt | -0.6
Cc1sc2nc(CN3CCCC3)nc(NC(C)C)c2c1C | -5 | nt
CCn1c(=N)n(CC(=O)c2ccccc2)c2ccccc21 | 4 | nt
c1ccc(OCCOc2ccccc2)cc1 | 18 | 15
O=C(CSc1nc2ccccc2c(=O)n1CCCO)N1CCC(c2ccccc2)=N1 | -5 | nt
COc1ccc(/C=C2/C(=O)NN=C2N)cc1 | -6 | nt
CCn1c(Cc2ccccc2)nnc1SCC(=O)N1CCCCC1C (stereo unspecified) | -5 | 0.0

Compound activity as filed in PubChem BioAssay.

Not all compounds are listed; count on the stated rates, not on these rows.
